Compound activity deposited in PubChem by Johns Hopkins Ion Channel Center.
KCNQ2 block = KCNQ2 channel blockers in CHO-K1 cells – cell-based, FluxOR thallium flux, B-score, primary screen (AID 2156); 20 min; active compounds read low; only compounds with negative scores are shown here; some inactives read as strong as hits; actives 1.1% (n = 310,000); O88943; B-score at 10 µM;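 active = fluorescence ratio B-score at most minus 3 library SDs, with starting brightness B-score within 2 library SDs, cut at about -5.5 in these data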
Target sequence (O88943 whole entry, looked up): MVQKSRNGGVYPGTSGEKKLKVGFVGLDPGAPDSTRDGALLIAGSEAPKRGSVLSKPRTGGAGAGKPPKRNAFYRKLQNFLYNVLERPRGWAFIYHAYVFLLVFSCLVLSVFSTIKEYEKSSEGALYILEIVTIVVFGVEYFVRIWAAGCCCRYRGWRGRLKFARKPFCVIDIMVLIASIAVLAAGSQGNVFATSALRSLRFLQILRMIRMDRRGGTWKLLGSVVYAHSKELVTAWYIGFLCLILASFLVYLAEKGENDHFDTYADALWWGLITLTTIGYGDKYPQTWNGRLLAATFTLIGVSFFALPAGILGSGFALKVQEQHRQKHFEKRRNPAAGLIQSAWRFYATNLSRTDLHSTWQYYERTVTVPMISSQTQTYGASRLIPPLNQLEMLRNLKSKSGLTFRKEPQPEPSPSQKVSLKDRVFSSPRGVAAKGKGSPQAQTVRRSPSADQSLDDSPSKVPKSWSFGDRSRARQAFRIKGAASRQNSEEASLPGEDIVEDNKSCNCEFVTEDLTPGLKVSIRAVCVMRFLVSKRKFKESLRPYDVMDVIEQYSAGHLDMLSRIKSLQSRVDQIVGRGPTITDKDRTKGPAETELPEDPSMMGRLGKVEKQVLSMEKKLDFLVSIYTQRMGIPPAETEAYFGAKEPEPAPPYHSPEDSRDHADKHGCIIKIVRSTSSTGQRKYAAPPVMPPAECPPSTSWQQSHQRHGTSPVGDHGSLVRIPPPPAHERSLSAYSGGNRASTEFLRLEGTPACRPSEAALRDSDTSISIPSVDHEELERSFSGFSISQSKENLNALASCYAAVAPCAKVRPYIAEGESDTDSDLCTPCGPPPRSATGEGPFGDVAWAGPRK
KCNQ2 block baseline = also measured in KCNQ2 block; calls as there; B-score; measured here: initial fluorescence intensity artifact check;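 brightness before thallium and not channel activity; 0 = typical well and far values either way flag optical interference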
An asterisk follows results filed as active; i = inactive. Only part of the results is shown; the hit share may differ from the screen's.

SMILES | KCNQ2 block | KCNQ2 block baseline
Cc1[nH][nH]c(=O)c1C(c1ccc(O)c(Br)c1)c1c(C)[nH][nH]c1=O | i | 0.53
O=Cc1c(NCc2ccccc2Cl)c2ccccc2[nH]c1=O | i | -0.07
CCOC(=O)c1nn(-c2ccccc2)c(C(=O)OCC)c1N | i | 2.1
Cc1ccc2c(c1)c(C)cc[n+]2Cc1ccccc1 | i | -1.1
O=C(N/N=C/c1c[nH]c2ccccc12)c1[nH]c2ccc(Br)cc2c1-c1ccccc1 | i | -1.2
O=C(NC(=S)Nc1ccc(Cl)cn1)C12CC3CC(CC(C3)C1)C2 | i | 0.01
COC(=O)C(C)n1cnc2c(nnn2-c2ccc(F)cc2)c1=O (stereo unspecified) | i | -0.54
O=C(NNC(=O)C1CCCC1)c1ccccc1F | i | 0.84
COc1ccc(OC)c(-c2cc(C3CCN(C(=O)OC(C)(C)C)CC3)[nH]n2)c1 | i | -0.15
CC(=O)Nc1ccc(CN2CCC(n3nccc3NC(=O)CCc3ccccc3)CC2)cc1 | i | -0.34
CC(C)(Oc1ccc(Cl)cc1)C(=O)NC1CCSC1=O (stereo unspecified) | i | -0.26
Cc1ccc(SCC(=O)NC(=O)NCc2ccccc2)c(C)c1 | i | -0.84
CCn1c(CNc2ccc(OC)cc2)nnc1SCC(=O)Nc1ccc(F)cc1 | i | 0.37
CCCC(C(=O)NC(C)(C)C)N(Cc1ccc(F)cc1)C(=O)c1snc(C(N)=O)c1N (stereo unspecified) | i | 1.5
Cc1ccc(S(=O)(=O)CCC(=O)OCC(=O)Nc2ncc(Cl)cc2Cl)cc1 | i | 0.46
O=C(NC(=S)NC1CCCC1)c1ccccc1 | i | 0.61
O=C(CSC(=S)N1CCCC1)c1cc(Br)cc(Br)c1O | i | -0.75
COc1ccc(C(=O)COC(=O)c2ccc(N(C)C)cc2)cc1 | i | -0.01
O=C(CNS(=O)(=O)c1ccccc1)NCc1ccco1 | i | -0.73
O=C1CSC(=S)N1 | i | 1.1
COC(=O)c1sc(S(=O)(=O)N2CCN(CCO)CC2)c(C(=O)OC)c1C | i | 0.26
O=Cc1ccc(OCC(=O)NC(=O)NC2CCCCC2)cc1 | i | 1.2
Cc1onc(-c2c(Cl)cccc2Cl)c1C(=O)OCC(=O)c1ccccc1 | i | -2.6
Cc1ccc(C2(C)NC(=O)N(CC(=O)NC(=O)NCCC(C)C)C2=O)cc1 (stereo unspecified) | i | -0.18
COc1ccc(CCCC(=O)NCCc2ccccc2)cc1 | i | -0.51
Cc1ccc(CNS(=O)(=O)NCc2ccccc2)cc1 | i | -1.1
Cc1ccc(NC(=O)CSc2nc(O)c(Cc3ccccc3)c(=O)n2-c2ccccc2)cc1 | i | -0.11
Cn1c(CCc2nc3ccccc3[nH]2)n[nH]c1=S | i | -0.01
Cc1ccc(C2CCN(C(=S)NC3CCCCC3)C2)cc1 (stereo unspecified) | i | -2.6
Cc1ccccc1C(=O)N1N=C(c2ccc(NS(C)(=O)=O)cc2)CC1c1cccs1 (stereo unspecified) | i | -1.9
Cc1ccc2nc3n(c(=O)c2c1)CCC3 | i | -0.06
Cc1ccc(C(=O)N=c2sccn2C)cc1C | i | 1.5
COc1ccccc1C1CC(c2ccc(Br)cc2)=NN1C(=O)c1cccnc1 (stereo unspecified) | i | -2.9
Cc1ccnc(NC(=O)c2cccc(S(=O)(=O)N3CCCc4ccccc43)c2)c1 | i | -0.16
COC(=O)Nc1ccc(S(=O)(=O)N2CCN(c3ccc(F)cc3)CC2)cc1 | i | 2.2
CC(C)CCNC(=O)c1cn(C)c2ccc(S(=O)(=O)N3CCCC3)cc2c1=O | i | 1.5
O=C(COc1ccccc1C(=O)O)NC1CCCc2ccccc21 (stereo unspecified) | i | 1.1
CCCN1C2CCCC1CC(NC(=S)Nc1cc(C)cc(C)c1)C2 (stereo unspecified) | i | -0.07
CCCc1c(O)nc(SC2CC(=O)N(c3ccc(OC)cc3)C2=O)[nH]c1=O (stereo unspecified) | i | -0.22
CN(CC(=O)NCc1ccccc1)S(=O)(=O)c1ccc2c(c1)CCC(=O)N2 | i | 0.75
Cc1cccn2c(=O)c(C=C(C#N)C#N)c(N3CCN(C)CC3)nc12 | i | 0.52
Cc1cccc(NC(=O)CSc2nnc(C3CC3)n2CC2CCCO2)c1 (stereo unspecified) | i | 2.6
COc1ccc2oc(=O)c(C(=O)Oc3ccc(NC(C)=O)cc3)cc2c1 | i | -0.28
C[C@@H]1CCCCCCCCCCC1=O | i | -0.01
N=c1oc2cc(O)ccc2cc1C(=O)Nc1ccc(Cl)cc1 | i | 0.03
CCCN1CCC2(CC1)NC(C(=O)O)Cc1c2[nH]c2ccccc12 (stereo unspecified) | i | 2.3
O=C(COc1cccc(C(F)(F)F)c1)N1CCN(c2ccccc2O)CC1 | i | -0.31
O=C(CN1CCCCC1)Nc1nc(-c2ccc(Cl)cc2)cs1 | i | 0.78
Cc1ccc(-c2nc3ccccc3s2)cc1NC(=O)c1ccc2c(c1)OCO2 | i | -0.15
CC1CCCC(C)N1C(=O)CN1C(=O)C(C)(C)Oc2ccc(C(=O)NC3CCCCC3)cc21 (stereo unspecified) | i | -0.54

Reformatted with values under each structure: entries from further up
Each structure is followed by: KCNQ2 block	KCNQ2 block baseline
- Cc1ccc2nc3n(c(=O)c2c1)CCC3
→ i	-0.06
- Cc1ccc(C(=O)N=c2sccn2C)cc1C
→ i	1.5

The list continues.
SMILES | KCNQ2 block | KCNQ2 block baseline
CCN(C(=O)c1ccc(Br)o1)C1CCS(=O)(=O)C1 (stereo unspecified) | i | 1.4
CC(C)c1cc(C(=O)Nc2ccc3c(c2)OCO3)no1 | i | 0.01
COc1ccc(CC(=O)Nc2oc(-c3ccccc3)c(-c3ccccc3)c2C#N)cc1OC | i | -1
Cc1ccc(S(=O)(=O)Cc2sc3ccccc3[n+]2C)cc1 | i | -0.67
Cc1cc(C)n2nc(SCC(=O)N/N=C/c3cccc(Br)c3)nc2n1 | i | 4.2
Fc1ccc(/C=C/c2nnc(-c3cccs3)o2)cc1 | i | 0.38
O=c1[nH]c2cc3c(cc2cc1CN(Cc1ccc2c(c1)OCO2)Cc1nnnn1CC1CCCO1)OCO3 (stereo unspecified) | i | -0.22
COc1cccc(CNC(=O)c2c[nH]n3c(=O)c(Cl)c(C)nc23)c1 | i | 1.5
c1cncc(-c2nc(-c3ccc4c(c3)OCCO4)cs2)c1 | i | 1.2
CCOC(=O)CSc1nnc(-c2ccc(S(=O)(=O)N3CCC(C)CC3)cc2)o1 | i | 0.01
Nc1ccccc1N1CCOCC1 | i | -0.5
O=C(C[n+]1ccc2c(c1)nnn2-c1ccccc1)c1ccc(Cl)cc1 | i | -1.4
COc1ccc(N2C(=O)C3CCCN3C2c2ccc(C)cc2)cc1Cl (stereo unspecified) | i | -0.55
COCCSc1ccccc1C(=O)Nc1ccc2c(c1)OCO2 | i | -0.91
O=C(N1CCOCC1)N1CCN(c2nc(-c3ccccc3)cs2)CC1 | i | 0.56
CC1CCN(CCc2nc3cc(NC(=O)COc4ccccc4)ccc3n2C)CC1 | i | 0.44
Nc1nc(-c2cccnc2)nn1C(=O)c1ccc(Cl)cc1 | i | 0.74
O=S(=O)(c1ccc(F)cc1)N1CCN(S(=O)(=O)c2cc(F)ccc2F)CC1 | i | -0.09
O=C(Cc1c(C(=O)O)[nH]c2ccc(Cl)cc12)Nc1ccc2c(c1)OCCO2 | i | -0.82
CC(=O)Oc1ccc(/C=C2\C=C(c3ccc(C)cc3)OC2=O)cc1 | i | -0.83
Cc1ccc(-c2noc(CSc3nnc(Cc4cccs4)n3-c3ccccc3)n2)cc1 | i | 0.3
CCOC(=O)c1c(NC(=O)C2(C)Cc3ccccc3C(=O)O2)sc2c1CCCC2 (stereo unspecified) | -5.8* | 0.92*
O=C(NCc1ccccc1)NC1(C(=O)Nc2ccc3c(c2)OCCO3)CCCCC1 | i | -0.04
Cc1sc2ncn(CC(=O)NCCCC(=O)N3CCN(c4ncccn4)CC3)c(=O)c2c1C | i | -0.37
C=CCn1c(SCc2c(C)noc2C)nc2sc3c(c2c1=O)CCCC3 | i | -1.8

Ordered by value in KCNQ2 block baseline (high to low): some entries from above
SMILES | KCNQ2 block | KCNQ2 block baseline
Cc1cc(C)n2nc(SCC(=O)N/N=C/c3cccc(Br)c3)nc2n1 | i | 4.2
Nc1nc(-c2cccnc2)nn1C(=O)c1ccc(Cl)cc1 | i | 0.74
Fc1ccc(/C=C/c2nnc(-c3cccs3)o2)cc1 | i | 0.38
CCOC(=O)CSc1nnc(-c2ccc(S(=O)(=O)N3CCC(C)CC3)cc2)o1 | i | 0.01
Cc1ccc(S(=O)(=O)Cc2sc3ccccc3[n+]2C)cc1 | i | -0.67

The list goes on:
SMILES | KCNQ2 block | KCNQ2 block baseline
CSc1ccccc1NC(=S)N/N=C/c1cccn1Cc1cccc(C)c1 | i | -0.27
CCCNC(=O)C1CCN(c2ccc(S(=O)(=O)N3CCOCC3)cc2Cl)CC1 | i | 0.16
CCOC(=O)c1sc(NC(=O)C2CC(=O)N(c3ccc(C)cc3)C2)nc1C (stereo unspecified) | i | -0.02
CSc1nc(Cl)cc(Nc2ccc(O)cc2)n1 | i | -0.74
COc1ccc(N/C=C(\[N+](=O)[O-])S(=O)(=O)c2ccccc2)cc1 | i | -1.7
CCCCCCCSc1nnc(N)s1 | i | -0.34
CCN(CC)C(=O)COc1cccc2ccccc12 | i | 2.3
O=c1ccc(/C=C/c2ccccc2)nn1Cc1ccccc1Cl | i | -2.1
COc1cc(OC)c(C2Nc3cccc4cccc(c34)N2)c(OC)c1 | i | 0.63
Cc1ccccc1N(C(=O)c1snc(C(N)=O)c1N)C(C)C(=O)NC1CCCCC1 (stereo unspecified) | i | 0.61
COc1ccc(C(=O)Nc2ccnn2C2CCN(C(=O)c3cnsn3)CC2)cc1 | i | 2.4
Cc1ccc(C2C(C#N)=C(N)N(c3ncn[nH]3)C3=C2C(=O)CC(C)(C)C3)cc1 (stereo unspecified) | i | -0.61
Cc1cccc(OCC(=O)NCCCNC(=O)c2ccccn2)c1 | i | 1
CCC1SC(=NC(=O)c2ccc(Cl)c(Cl)c2)NC1=O (stereo unspecified) | i | -0.22
C=C1CCN([C@@H](CC(C)C)C(=O)N2CCCC2)S(=O)(=O)c2ccccc21 | i | 0.03
O=C1N[C@@H](Cc2ccccc2)C(=O)N2[C@@H]1C[C@]1(Br)c3ccccc3N(S(=O)(=O)c3ccccc3)[C@H]21 | i | 0.05
CCC1CCCCN1C(=O)CCc1nnc(Cc2cc(OC)ccc2OC)o1 (stereo unspecified) | i | -0.12
O=C(Oc1ccccc1C(=O)Nc1ccccc1)c1ccccc1Br | i | 0.91
O=C(CSc1ccc(C(F)(F)F)cc1[N+](=O)[O-])Nc1ccccc1 | i | 0.04
Cc1ccc(C(c2nnnn2CS(=O)(=O)c2ccc(C)cc2)N2CCC(C)CC2)cc1 (stereo unspecified) | i | 0.45
CC1Cc2ccccc2C(CCc2ccccc2)=N1 (stereo unspecified) | i | 0.15
COc1ccc2cc(CN(CC3CCCO3)S(=O)(=O)c3ccccc3)c(=O)[nH]c2c1 (stereo unspecified) | i | 0.01
CCCCC(=O)N(CCOC)c1nnc(-c2ccccc2C)s1 | i | -0.25
Cc1ccc(S(=O)(=O)N2CCN(C(=O)CN3C(=O)NC4(CCCC4)C3=O)CC2)c(C)c1 | i | 1.3
CCc1cccc(OC2OC(CO)C(O)C(O)C2NC(C)=O)c1 (stereo unspecified) | i | 1.2

Structures shown so far that contain a nitro group on carbon, in the order listed:
SMILES | KCNQ2 block | KCNQ2 block baseline
COc1ccc(N/C=C(\[N+](=O)[O-])S(=O)(=O)c2ccccc2)cc1 | i | -1.7
O=C(CSc1ccc(C(F)(F)F)cc1[N+](=O)[O-])Nc1ccccc1 | i | 0.04

(list continues)
SMILES | KCNQ2 block | KCNQ2 block baseline
O=C(CSc1ccc(F)cc1)NC12CC3CC(CC(C3)C1)C2 | i | 0.04
CCc1ccc(NC(=O)c2cc(C)on2)cc1 | i | -0.05
COc1ccc(O)c(-c2[nH]ncc2C(=O)c2ccccc2)c1 | i | 0.56
O=C(Cn1ccc2ccccc2c1=O)NCCC(=O)Nc1ccc(F)cc1F | i | 1.5
O=C(Nc1nc(-c2ccc(-c3ccccc3)cc2)cs1)C1=COCCO1 | i | -1
CC(C)c1ccccc1OCC(=O)NN1C(=O)c2ccccc2C1=O | i | -0.38
Cc1nn(-c2ccccc2)c(C)c1C(=O)OCC(N)=O | i | 2.1
COC(=O)c1ccc(C(=O)OC)c(NC(=S)N2CCCCC2)c1 | i | 2.8
CCCCc1ccc(C(=O)NC(C(=O)O)C(C)C)cc1 (stereo unspecified) | i | -1.4
S=C(Nc1cccc2ccccc12)NC1CCCCC1 | i | 0.13
COCC(C)Nc1ccc(S(=O)(=O)N2CCCC2)cc1[N+](=O)[O-] (stereo unspecified) | i | 0.68
Cc1ccc(N(C(C)C(=O)O)S(=O)(=O)c2c(C)[nH]c(=O)[nH]c2=O)cc1 (stereo unspecified) | i | 2
O=C(CSc1ccc2ccccc2n1)N/N=C/c1ccc(O)cc1 | i | -0.34
Cc1cc2cc(CN(CCCN3CCOCC3)C(=O)NC3CCCCC3)c(=O)[nH]c2cc1C | i | -0.78
O=c1c2c3c(sc2ncn1/N=C/c1ccncc1)CCCC3 | i | 0.02
COc1ccc(CCNC(=O)C(=O)NCc2ccccc2C)cc1OC | i | -1.8
CCN1C(=NCc2cccc(Cl)c2)N[C@@H](c2cccc(F)c2)C(C(=O)OC)=C1C | i | 0.43
COC(=O)c1cccc(NC(=O)CSc2nnc(COc3ccccc3)n2C)c1 | i | 0.49
O=C(N1CCN(c2ccccn2)CC1)N1c2ccccc2Sc2ccccc21 | i | -1.5
